# KCNQ2 enhance: potentiators of rat KCNQ2 potassium channel; O88943; AID 2239; CHO-K1 KCNQ2, FluxOR thallium flux fluorescence; stronger effect = higher value; B-score at 10 µM; 310,000 tested, 0.54% active;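 active = fluorescence ratio B-score at least 3 SD of library B-scores, with initial fluorescence B-score within 3 SD, cut at about 5.3 in these data; same plate scores as AID 2156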;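 also: B-score of peak minus minimum over baseline fluorescence ratio after K+ and Tl+ stimulus; positive B-score means potentiation of KCNQ2 with more thallium influx and brighter signal; only the inactives scoring about 0 or higher are listed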
# Target sequence (O88943 whole entry, looked up): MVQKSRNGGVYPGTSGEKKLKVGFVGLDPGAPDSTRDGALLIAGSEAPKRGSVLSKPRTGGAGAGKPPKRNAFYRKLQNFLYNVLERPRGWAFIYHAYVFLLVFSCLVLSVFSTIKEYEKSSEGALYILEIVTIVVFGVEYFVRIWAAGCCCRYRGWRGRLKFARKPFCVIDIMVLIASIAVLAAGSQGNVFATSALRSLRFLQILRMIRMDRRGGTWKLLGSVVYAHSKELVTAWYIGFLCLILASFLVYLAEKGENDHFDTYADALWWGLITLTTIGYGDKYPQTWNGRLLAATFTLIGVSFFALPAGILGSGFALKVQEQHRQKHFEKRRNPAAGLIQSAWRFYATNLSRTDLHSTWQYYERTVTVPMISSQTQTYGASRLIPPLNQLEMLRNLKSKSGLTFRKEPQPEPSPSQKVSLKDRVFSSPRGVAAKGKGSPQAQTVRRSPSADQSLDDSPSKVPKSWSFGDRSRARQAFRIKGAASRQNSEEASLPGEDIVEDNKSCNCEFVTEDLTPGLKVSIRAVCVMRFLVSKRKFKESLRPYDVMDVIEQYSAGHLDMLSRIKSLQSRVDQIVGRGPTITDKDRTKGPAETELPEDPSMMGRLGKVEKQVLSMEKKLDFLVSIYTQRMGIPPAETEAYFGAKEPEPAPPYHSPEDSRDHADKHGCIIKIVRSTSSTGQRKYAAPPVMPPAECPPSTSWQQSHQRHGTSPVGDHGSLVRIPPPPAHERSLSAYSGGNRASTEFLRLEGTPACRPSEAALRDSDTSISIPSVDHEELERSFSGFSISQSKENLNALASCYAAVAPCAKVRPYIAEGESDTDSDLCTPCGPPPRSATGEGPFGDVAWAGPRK
# KCNQ2 enhance baseline: further read-out of KCNQ2 enhance, marked with its call; B-score; compound at 10 µM; measured here: initial fluorescence intensity artifact check;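 brightness before thallium and not channel activity; 0 = typical well and far values either way flag optical interference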
# * marks the source's active call; other numbers are inactive results.
SMILES,KCNQ2 enhance,KCNQ2 enhance baseline
CCCOc1ccc(N2CC(C(=O)Nc3ccc4c(c3)OCO4)CC2=O)cc1 (stereo unspecified),1.2,0.18
COc1ccc(CCN(C)C(=O)c2cncc(Br)c2)cc1OC,0.08,-0.52
CCNC(=S)N1CCNC(=O)C1CC(=O)OC (stereo unspecified),0.04,1.9
O=[N+]([O-])c1cc(C(F)(F)F)ccc1NCCc1ccccn1,0.05,-1.7
Cc1ccc(-c2nc3ncccn3c2Nc2ccc3c(c2)OCCO3)cc1,0.6,0
O=C(COc1ncnc2ccccc12)NCCC1=CCCCC1,0.18,-0.51
Cn1c(SCCCC(=O)c2ccc(Br)cc2)nnc1-c1ccncc1,0.02,-0.71
CCn1c(=S)[nH]c2sc3c(c2c1=O)CCCC3,16*,-1.5*
CCN(CC)c1ccc(NC(=O)c2cc3ccccc3o2)c(C)c1,0.02,1
Cc1cc(C)c(C#N)c(Nc2ccccc2C)n1,0.13,0.09
Cc1cc2c(=O)n(C)c(SCC(=O)Nc3cccc(O)c3)nc2s1,0.35,1.3
COc1cc(C(=O)OCC(=O)Nc2ccc(OC(F)F)cc2)cc(OC)c1OC,1,0.18
CCOC(=O)c1c(NC(=O)c2cccs2)sc(C)c1CC,0.01,0.77
COc1cc(CO)ccc1OCc1nnnn1-c1ccc(C)cc1,0.12,-0.96
Cc1ccc(NCc2ccccc2)cc1,0.2,0.18

# Overlap with the part before: two entries, followed by the next part.
SMILES,KCNQ2 enhance,KCNQ2 enhance baseline
COc1cc(CO)ccc1OCc1nnnn1-c1ccc(C)cc1,0.12,-0.96
Cc1ccc(NCc2ccccc2)cc1,0.2,0.18
Cc1[nH]c(C)c(S(=O)(=O)NCCc2ccc(S(N)(=O)=O)cc2)c1C(=O)N1CCCC1,1.1,0
O=C(COc1ccccc1)NNC1=NS(=O)(=O)c2ccccc21,0.82,0.71
Cc1nn(-c2ccc(F)cc2)c(N)c1C1(O)C(=O)Nc2ccccc21 (stereo unspecified),0.06,0.35
COc1ccc(CCNC(=O)c2ccccc2NS(=O)(=O)c2cc(C(=O)O)ccc2OC)cc1,1.4,-0.31
CCOc1cc(C=O)ccc1OCCSc1ccc(C)cc1,0.07,0.05
O=C(CNCC1(N2CCOCC2)CCCCC1)Nc1ccc(Cl)cc1,2.6,-1.9
CCOC(=O)N1CCN(c2cc(=O)n(-c3cccc(C)c3)c(=O)[nH]2)CC1,0.9,-0.54
COc1ccc(S(=O)(=O)N(Cc2cc3ccc(OC)cc3[nH]c2=O)CC2COCCO2)cc1 (stereo unspecified),0.52,0.22
c1ccc(-c2ccc(CN3C[C@@H]4C(c5ccccc5)C5(c6ccccc6)CC4(C5)[C@H]3c3ccccc3)cc2)cc1 (stereo partly specified),1.7,-0.19
COc1ccc(Nc2nc(-c3ccc(OC)cc3)cs2)cc1,1.8,0.88
CC(C)[C@H](NC(=O)c1ccccc1)C(=O)NCCc1ccccc1,0.81,-1.7
COc1ccc(C2=NO[C@@H]3C(=O)N(c4ccc(C)cc4C)C(=O)[C@H]23)cc1OC,1.8,4.6
O=C(O)CC(c1ccc(Cl)cc1)N1C(=O)CCC1=O (stereo unspecified),2,0.12
Cc1nn2c(=O)cc(CSc3nc4ccccc4[nH]3)nc2s1,0.17,-1.3
CCOC(=O)c1ccc(NC(=O)C2CCCN(S(=O)(=O)c3cnc[nH]3)C2)cc1 (stereo unspecified),0.89,0.36
COc1ccccc1/C=C/C(=O)Nc1cccnc1,1.3,-1.5
Nc1nnc(SCCN2C(=O)c3ccccc3S2(=O)=O)s1,1.5,-0.09
CN(C)/C=N/c1ncnc2c1cnn2-c1ccc(C(F)(F)F)cn1,0.1,-0.95
Cc1onc(-c2ccc(Cl)cc2Cl)c1-c1csc(N/N=C/c2ccccc2)n1,2.3,1.2
CC(C)CCn1c(SCC(=O)N2CC(=O)Nc3ccccc32)nc2scc(-c3cccs3)c2c1=O,1,2.9
Cc1cc(NC(=O)c2ccccc2)ncc1NC(=O)c1cccs1,0.48,0.96
COc1ccc(OC)c(NC(=O)CSc2nc(N3CCOCC3)nc(N3CCOCC3)n2)c1,0.48,0.94
CC1(C)CC(C(N)=S)CCO1 (stereo unspecified),1.5,0.41
CCC(C)NS(=O)(=O)c1ccc(N)cc1 (stereo unspecified),0.78,2.1
Cn1cc(S(=O)(=O)N2CCc3ccccc32)cc1C(=O)NC1CCCCC1,0.02,-0.85
Cc1ccc(NC(=O)CCNS(=O)(=O)c2ccc3c(c2)CCC(=O)N3)cc1F,0.05,-0.69
COc1ccc(C(=S)N2CCNCC2)cc1,0.18,-0.69
Cc1cccc2cc(CN(CC3CCCO3)C(=O)c3cccs3)c(=O)[nH]c12 (stereo unspecified),0.01,0.65
Cc1cc(S(=O)(=O)NC(C)C)ccc1OCC(=O)NCc1ccccc1,0.37,0.26
Cc1cc(C(F)(F)F)nc(CCNC(=O)C2CCC(=O)N(Cc3cccc(F)c3)C2)n1 (stereo unspecified),0.12,-0.16
Cc1c(S(=O)(=O)Nc2cccc3ccccc23)c(=O)n(C)c(=O)n1C,0.6,-0.04
COc1cc2c(cc1O)CCN(C(=O)c1ccco1)C2C (stereo unspecified),0.99,-0.01
Cc1cccc(N2CCN(C(=O)Cn3sc4nc(C)cc(C)c4c3=O)CC2C)c1 (stereo unspecified),3.9,-1.6
COC(=O)CSc1[nH]c(=O)cc(C)c1C#N,0.92,0.41
CCCn1cc([C@@H]2C[C@H]3CN(Cc4cccc(Cl)c4)C(=O)[C@]34CCCN24)c(C)n1,0.45,0.11
CCc1ccccc1NC(=S)N(CCN(C)C)C(C)c1ccco1 (stereo unspecified),0.57,-0.44
Cc1occc1C(=O)NC(C)C1CCCO1 (stereo unspecified),0.54,0.72
O=C(COc1ccc2c3c(c(=O)oc2c1)CCC3)NCc1ccncc1,0.23,-0.37
CNC(=O)C1=C(C)n2c(nc3ccccc32)NC1c1ccc(OC)cc1 (stereo unspecified),0.26,1.7
CCOc1ccc2c(c1)n(CO)c(=S)n2CO,2.4,-1.1
CN(C)S(=O)(=O)NC(c1ccccc1)c1ccccc1,2,0.01
COc1ccc(CNC(=O)CN(C(=O)CCC(=O)Nc2nccs2)c2ccc(C)cc2)cc1,0.73,0.08
O=C(O)c1ccc(CN2C(=O)c3ccc(Oc4ccc([N+](=O)[O-])cc4)cc3C2=O)cc1,0.77,-0.64
COc1ccc(CC(=O)Nc2ccc3c(c2)CCC3)cc1,1.7,-0.01
S=C(NCc1cccnc1)Nc1cccc(Cl)c1,1.9,-0.08

# Record cards (already shown). Screens in order: KCNQ2 enhance	KCNQ2 enhance baseline
# COc1ccc(CNC(=O)CN(C(=O)CCC(=O)Nc2nccs2)c2ccc(C)cc2)cc1 is listed with 0.73	0.08
# O=C(O)c1ccc(CN2C(=O)c3ccc(Oc4ccc([N+](=O)[O-])cc4)cc3C2=O)cc1 is listed with 0.77	-0.64
# CCCn1cc([C@@H]2C[C@H]3CN(Cc4cccc(Cl)c4)C(=O)[C@]34CCCN24)c(C)n1 is listed with 0.45	0.11
# S=C(NCc1cccnc1)Nc1cccc(Cl)c1 is listed with 1.9	-0.08
# O=C(COc1ccc2c3c(c(=O)oc2c1)CCC3)NCc1ccncc1 is listed with 0.23	-0.37

# (cont.)
SMILES,KCNQ2 enhance,KCNQ2 enhance baseline
O=C(Nc1ccc(S(=O)(=O)N2CCCC2)cc1)C1CCCN1C(=O)c1cccs1 (stereo unspecified),0.12,0.31
CCN(CC)CCNC(=O)c1ccc(NC(=O)c2cccc(S(=O)(=O)Nc3ccc(C)cc3)c2)cc1,0.71,-0.09
O=C(CNC(=O)c1ccc(-c2ccccc2)cc1)OCc1ccc(Br)cc1,1,-1.4
CN1CCN(C(=O)Nc2cccc(-c3ccccc3)c2)CC1,0.17,-1.1
CCOC(=O)CSc1nc2cc(OCC)ccc2cc1C#N,0.08,0.45
CC(C)Cn1cnc2c(=O)oc3ccccc3c21,0.42,0.38
Cc1ccc(S(=O)(=O)N2CCN(C(=O)C3=COCCO3)CC2)cc1C,0.13,0.54
Cc1cc(=O)[nH]c(SCC(=O)NCC2CCCCC2)c1C#N,2.4,-1
CC(C)(CO)CNC(=O)CCc1nnc(C2(c3ccc(Cl)cc3)CCC2)o1,0.04,0.52
COCCn1c(SCC(=O)NCc2ccccc2)nc2ccccc21,0.36,-0.83
CC1=NOC(=O)/C1=C\c1ccc(-c2ccc(Cl)c(C(=O)O)c2)o1,1.5,-0.45
O=C(C1=C(O)C(=O)N(c2ccccc2)C1c1ccc([N+](=O)[O-])cc1)c1cccs1 (stereo unspecified),0.63,0.53
COC(=O)N[C@H](CC(C)=O)c1ccccc1,0.16,-0.07
COc1cccc(NC(=O)COC(=O)c2cccnc2)c1,1.8,-0.27
Cc1ccc(S(=O)(=O)c2n[nH]n3c2nc(=O)c2ccccc23)cc1,0.39,3.4
O=[N+]([O-])c1cc(S(=O)(=O)NCCN2CCOCC2)ccc1Sc1nnnn1-c1ccccc1,0.02,2.9
O=C(O)c1ccc2c(c1)C(=O)N(Cc1ccccc1)C2=O,1.6,-0.16
Cc1[nH]nc2c1C1(CCC(c3ccccc3)CC1)C(C#N)=C(N)O2 (stereo unspecified),0.87,-0.82
CS(=O)(=O)Cc1cc(Sc2ccccc2)nc(-c2ccncc2)n1,3.4,-0.05
C(=N\N(c1ccccc1)c1ccccc1)/c1ccc(N2CCOCC2)s1,0.07,-1.6
COc1ccc(C(=O)NCc2cc(C(C)C)no2)cc1OC1CCN(C(C)C)CC1,1.8,0.16
CSc1n[nH]c(NC(C)=O)n1,0.34,0.01
CCCCN1C[C@H](O)[C@@H](O)[C@H](O)[C@H]1CO,1.3,-1
CCN(CC)CCNC(=O)c1cc2ccccc2nc1Cl,2.9,0.53
CCOc1ccc(NC(=S)c2ccc3ccccc3n2)cc1,0.3,1.7
CC(C)CCNC(=O)c1ccc(Cl)c(NC(=O)Cc2ccccc2)c1,1.5,0
CCN(c1cccc(C)c1)c1nc2ccsc2c(=O)s1,0.92,-1.3
CC(OC(=O)CNC(=O)C12CC3CC(CC(C3)C1)C2)C(=O)Nc1ncc(Cl)cc1Cl (stereo unspecified),0.18,0.32
COc1ccc(C(=O)O)cc1NC(=S)NC(=O)/C=C/c1ccc(C(C)C)cc1,2,-0.57
CN(C)c1ccc(/C=N/NC(=S)NCc2ccccc2)cc1,0.26,0.57
CCC(=O)NCC(=O)OCC(=O)c1ccccc1,0.78,-0.02
COc1ccccc1-n1c(SCC(=O)NC(C)(C)C)nc(O)c(Cc2ccccc2)c1=O,0.4,-1.2
CCS(=O)(=O)NCC(c1cccnc1)N1CCN(c2ccccc2F)CC1 (stereo unspecified),0.02,-0.1
O=C(O)Cn1c(CC(=O)N2CCCC2)nc2ccccc21,0.59,1.4
CCO[C@H]1OC(C(=O)N2CCOCC2)=C[C@@H](c2ccc(Br)cc2)[C@@H]1CCCO,0.09,0.01
Cc1cc(O)c(C(C)C)cc1C1(c2cc(C(C)C)c(O)cc2C)OC(=O)c2ccccc21,0.12,-1.5
COCCNc1nc2c(c(=O)[nH]c(=O)n2C)n1CCCc1ccccc1,0.02,0.48
O=c1c([N+](=O)[O-])c(O)c2cccc3c2n1CCC3,1.1,0.45
CCC(=O)C1CCCN(C(=O)c2ccc(OC3CCN(C(=O)c4cccnc4)CC3)cc2)C1 (stereo unspecified),0.95,-1.2
Cc1nnc(N/N=C/c2cccc(OCc3ccc(Cl)c(Cl)c3)c2)n1N,0.55,-0.23
CCOC(=O)c1c(N)sc2c(OCC)c(Br)ccc12,2.1,-0.18
CCc1c(O)nc(SCC(=O)NCc2ccco2)[nH]c1=O,0.43,0.61
COC(=O)C1=C(COc2ccc(C=O)cc2OC)NC(=O)NC1c1cc(C)ccc1C (stereo unspecified),0.03,-0.06
O=C(CSc1ccc2nnc(-c3cccc(F)c3)n2n1)NCC1CCCO1 (stereo unspecified),0.03,-1
CCOc1ccc(N2CC(C(=O)NCCc3ccc(S(N)(=O)=O)cc3)CC2=O)cc1 (stereo unspecified),0.69,-0.47

# Two compounds picked at random from the list so far, as already listed:
SMILES,KCNQ2 enhance,KCNQ2 enhance baseline
O=c1c([N+](=O)[O-])c(O)c2cccc3c2n1CCC3,1.1,0.45
Cc1nnc(N/N=C/c2cccc(OCc3ccc(Cl)c(Cl)c3)c2)n1N,0.55,-0.23

# Further entries
SMILES,KCNQ2 enhance,KCNQ2 enhance baseline
Cc1ccc(Cc2cncc(O)c2)cc1S(=O)(=O)O,0.74,0.22
CS(=O)(=O)c1ccc(C(=O)OCc2nnc(-c3ccccc3)o2)cc1[N+](=O)[O-],2.5,-2
O=C1c2ccccc2C(=O)N1Cc1ccccn1,0.01,-1.1
COc1ccc(C(=O)N2CC(=O)N(CCc3ccccc3)C(=O)C2)cc1OC,0.01,-1.2
CSc1sc(C(=O)O)c(C)c1C(C)=O,0.8,0.42
CCCN(CCC)CCCNC(=O)c1cn(CC)c2ccc(S(=O)(=O)N3CCc4ccccc4C3)cc2c1=O,0.13,1.1
Cc1cc(C)c(S(=O)(=O)NCC(c2cccnc2)N2CCN(Cc3ccccc3)CC2)c(C)c1 (stereo unspecified),0.02,-0.98
CCCNc1nc(-c2cc(-c3ccc(Cl)cc3)on2)cc(C(C)C)n1,2.5,-3
CCCCC(=O)Nc1ccc(NC(=O)C(C)C)cn1,1.9,-0.42
CC(=O)[C@H]1CC[C@H]2[C@@H]3CCC4=CC(=O)CC[C@]4(C)[C@H]3[C@H](O)C[C@]12C,0.87,0.04
Cc1cc(C)n2nc(C(=O)N/N=C/c3c4ccccc4cc4ccccc34)nc2n1,0.14,-0.68
CCCc1ccc(OCC(O)CN2CCN(CCO)CC2)cc1 (stereo unspecified),0.75,0.1
COc1cc(OC)cc(C(=O)N2CCN(C(=O)Cc3ccccc3)CC2)c1,1.6,0.31
COc1ccc(-c2csc(NC(=O)COC(=O)c3ccc(Br)o3)n2)cc1,0.84,-0.98
COc1cc(NC(=O)C2CC(c3c(F)cccc3Cl)=NO2)cc(OC)c1OC (stereo unspecified),0.08,0.99
O=C(NCc1ccc(Cl)cc1)c1cc2ccccc2oc1=O,1.5,-1.8
CCN(CC)S(=O)(=O)c1ccc(S(=O)(=O)Nc2ccc(C(=O)N3CCCC3)cc2)cc1,0.84,-2.3

# An excerpt, so the mix of outcomes need not match the whole.
